Lassa entry inh = inhibitors of Lassa virus binding or cell entry. Lassa virus pseudotype entry inhibition, cell reporter; control for the full effect not named in the record. Potency, µM (highest dose often 37.9 µM), for inactives: top-dose activity change, negative = inhibition, usual class: inhibitors. 300,000 compounds, 1.2% hits. AID 540256; active means well fitted inhibition curve with a large enough effect; inconclusive means small, poorly fitted or top-dose-only effect, or effect the other way; inactive means flat fitted curve, though single readings scatter; tested in HEK293 cells; also: % is scaled to controls: 0 for no effect and ±100 for the full control effect; nearly all actives have a fitted effect of over 50% in size; luciferase read-out
MARV entry inh = Marburg virus entry inhibition; Potency, µM (doses to about 37.8 µM), for inactives: at the highest dose activity change, negative = inhibition, most hits filed as inhibitors; AID 540276; 300,000 compounds, 1.8% hits; Marburg virus pseudotyped entry inhibition, cell reporter; control for the full effect not named in the record; about a third of the inactives were read at about 46 µM; active = well fitted inhibition curve with a large enough effect; inconclusive = small, poorly fitted or top-dose-only effect, or effect the other way; inactive = flat fitted curve, though single readings scatter; tested in HEK293 cells; about a fifth of its hits are not listed in these tables; also: % is scaled to controls: 0 for no effect and ±100 for the full control effect; luciferase read-out
RE007 growth inh = less growth of the S. pombe RE007 Vpr strain; S. pombe RE007 Vpr strain, BacTiter-Glo ATP luminescence, 24 h; control for the full effect not named in the record; Potency, µM (titrated, usually from 92.2 µM), without a hit: top-dose activity change, negative = less growth; 360,000 compounds, 0.21% hits; AID 651644; active = well fitted falling curve with a large enough effect; inconclusive = small, poorly fitted or top-dose-only effect; inactive = no such curve, though single readings can be large or run the other way;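 also: % is scaled to controls: 0 for no effect and ±100 for the full control effect; nearly all actives have a fitted effect of over 50% in size; the assay follows cell death caused by Vpr and the record does not say whether a fall means rescue or toxicity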
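Fission yeast RE007 carrying one integrated HIV-1 vpr copy, seeded at OD 0.01 in PMG+AL medium with 23 nL pinned compound. Grown 24 h at 30 degrees; viability read by BacTiter-Glo luminescence after 5 min.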
Cruzain noTriton = blocks cruzain activity in detergent-free assay; purified cruzain, Z-FR-AMC fluorescence, no detergent; Potency, µM, for inactives: max response, negative = inhibition, usual class: inhibitors; 200,000 compounds, 2.3% hits; AID 1476; active = well fitted curve in the direction sought with a large enough effect; inconclusive = small, poorly fitted or top-dose-only effect, or another doubt; inactive = no such curve, though single readings can be large; an effect the other way counts as inactive or inconclusive;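 also: plate controls were enzyme without inhibitor for no effect and buffer without enzyme for full effect; nearly all actives have a fitted effect of over 40% in size; top concentration of the series not given in the record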
Target sequence (P25779 123-467 limits assumed): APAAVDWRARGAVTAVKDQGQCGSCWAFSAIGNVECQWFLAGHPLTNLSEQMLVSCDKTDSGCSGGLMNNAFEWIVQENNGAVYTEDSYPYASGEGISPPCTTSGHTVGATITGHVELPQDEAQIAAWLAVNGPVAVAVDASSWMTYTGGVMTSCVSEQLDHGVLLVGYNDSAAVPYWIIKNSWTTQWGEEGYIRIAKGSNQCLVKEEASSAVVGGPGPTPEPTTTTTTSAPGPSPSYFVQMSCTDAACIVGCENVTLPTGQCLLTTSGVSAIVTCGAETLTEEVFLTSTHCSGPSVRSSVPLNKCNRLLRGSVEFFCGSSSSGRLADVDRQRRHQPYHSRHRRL
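Detergent-free condition (0.00005% Triton X-100) in acetate buffer pH 5.5 with DTT. 1.5 nM enzyme and compound were pre-mixed 15 min, then 2 uM Z-FR-AMC substrate added; reaction progress from fluorescence change between first and third reads (60 s).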
NS1 function inh = blocks influenza NS1 protein function; S. cerevisiae slowed by influenza A NS1, growth recovery by OD600; Potency, µM (top dose mostly 46.1 µM), without a hit: at the highest dose activity, positive = more growth; 270,000 compounds, 0.4% hits; also: actives are rising curves; nearly all actives have a fitted effect of over 50% in size
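Recovery from NS1-induced slow growth read by OD600 in budding yeast switched to galactose assay medium (pH 6.0, -URA) at 1:100 dilution. Compound 23 nl per well; the matching strain lacking NS1 serves as control.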
2A StopGo = lowers the luciferase signal of an FMDV 2A StopGo reporter. Potency, µM (titrated, usually from 57.9 µM), without a hit: at the highest dose signal change, negative = less light. 410,000 compounds, 1.2% hits. human cells with a luciferase reporter of 2A StopGo recoding; control for the full effect not named in the record; active = well fitted falling curve with a large enough effect; inconclusive = small, poorly fitted or top-dose-only effect; inactive = no such curve, though single readings can be large or run the other way; tested in HEK293T cells; also: % is scaled to controls: 0 for no effect and ±100 for the full control effect; nearly all actives have a fitted effect of over 45% in size; luciferase light after 4 h
SARS PLpro yeast = SARS-CoV PLP inhibition in yeast; AID 485353; Potency, µM (highest dose often 32.9 µM), without a hit: at the highest dose activity, positive = growth rescue; 330,000 compounds, 0.19% hits; S. cerevisiae expressing SARS-CoV PLpro, growth rescue; control for the full effect not named in the record; also: 0% is about no effect; nearly all actives have a fitted effect of over 55% in size; growth read by luminescence after 48 h
Cruzain inh Det = inhibitors of Trypanosoma cruzi cruzain with detergent; P25779; purified cruzain, Z-FR-AMC fluorescence, 0.01% Triton; Potency, µM, inactives show max response, negative = inhibition, hits mostly inhibitors; 200,000 compounds, 0.43% hits; active = well fitted curve in the direction sought with a large enough effect; inconclusive = small, poorly fitted or top-dose-only effect, or another doubt; inactive = no such curve, though single readings can be large; an effect the other way counts as inactive or inconclusive;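 also: plate controls were neutral wells for no effect and buffer without enzyme for full effect; nearly all actives have a fitted effect of over 40% in size; top concentration of the series not given in the record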
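Steps: dispense cruzain (1.5 nM final) in acetate buffer pH 5.5 with DTT and 0.01% Triton X-100; pin-transfer compounds; incubate 15 min RT; add Z-FR-AMC (2 uM final); read fluorescence every 30 s, using the 60 s intensity change.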
* marks the source's active call; other numbers are inactive results; u = inconclusive; x = no result given; [ ] = remark or other dose. Unless noted, calls follow the shape of the dose curve; as a rule, active means well fitted rising curve with a large enough effect; inconclusive means small, poorly fitted or top-dose-only effect; inactive means no such curve, though single readings can be large or run the other way. Potency is read from the fitted curve at half-maximal effect.

Below each compound: Lassa entry inh | MARV entry inh | RE007 growth inh | Cruzain noTriton | NS1 function inh | 2A StopGo | SARS PLpro yeast | Cruzain inh Det
Cc1sc2ncn(CC(=O)NCCCC(=O)N3CCN(c4ccccc4F)CC3)c(=O)c2c1C
 : u | -3%[46.1 µM] | -9% | x | -12% | -17% | 9% | x
COCCn1c(=NC(=O)c2nc3ccccc3s2)sc2cc(S(C)(=O)=O)ccc21
 : 0% | -11% | -13% | u | -9% | u | 2% | -7.8%
c1ccc(Cc2nnc3sc(-c4ccncc4)nn23)cc1
 : -1% | 0% | -2% | -4% | -96% | -6% | -2% | -9.3%
CC(=O)Nc1cccc(C(=O)NNC(=O)c2n[nH]c(=O)c3ccccc23)c1
 : 10% | 23%[46.1 µM] | 1% | x | x | -21% | 1% | x
CCN1CCN(Cc2c(O)ccc3oc(C)c(C(=O)Nc4ccc(C)cc4C)c23)CC1
 : 3%[46.1 µM] | 11%[46.1 µM] | x | -17% | x | -16% | x | -1.6%
Fc1ccc2ncc3c(-c4ccccc4)n[nH]c3c2c1
 : 27%[46.1 µM] | x | x | -9% | x | 29% | x | -3.1%
N#C/C(=C\c1cccnc1)C(=O)Nc1ccc(S(N)(=O)=O)cc1
 : x | x | 7% | x | 14% | -13% | 2% | x
COc1ccc(-c2cc(C(F)(F)F)nc(NCc3ccccc3)n2)cc1OC
 : 10%[46.1 µM] | u | x | 3% | x | -22% | x | -10%
Cc1ccc(C)c(CN2C(=O)c3ccccc3S(=O)(=O)c3ccc(C(=O)NCCC4=CCCCC4)cc32)c1
 : -22%[46.1 µM] | u | x | 32µM* | x | -7% | x | 0.2%
Cc1cc(C(C)(C)C)ccc1OC(=O)C1=CC=CN2CCS(=O)(=O)N=C12
 : 13% | 0% | u | x | x | 24% | -1% | x
Cn1nc(C(=O)Nc2ccc(F)c(Cl)c2)c2c1-c1ccccc1S(=O)(=O)C2
 : -23%[46.1 µM] | x | x | 9% | x | -7% | x | 2.0%
Cc1cc(=O)oc2cc(NC(=O)C(C)N3C(=O)C4CCCCC4C3=O)ccc12 (centres undefined)
 : 17% | u | 3% | x | x | -2% | -16% | x
O=C(Nc1ccc(C(=O)OC2CCCCC2)cc1)c1ccncc1
 : u | u | 9% | x | -14% | -25% | -10% | x
COc1cc2ncnc(NCc3ccco3)c2cc1OC
 : x | x | -12% | x | 5% | -26% | 0% | x
CC(=O)N1c2nc(-c3ccco3)nn2C2(CCCCC2)[C@@H]2CCCC[C@@H]21
 : u | -13%[46.1 µM] | x | 2% | x | -22% | x | -0.3%
CC(C)(CO)CN1CCC(n2nccc2NC(=O)C2CCCC2)CC1
 : 0% | 22% | -5% | x | 19% | 0% | 9% | x
S=c1nc2ccccc2c2nc(-c3ccccc3Br)[nH]n12
 : 19%[46.1 µM] | 15%[46.1 µM] | -2% | x | u | 7% | 3% | x
COc1ccc(C(=O)N/N=C(\C)Cn2cnc([N+](=O)[O-])n2)cc1
 : 19% | 10% | -2% | 6% | -5% | 1% | 3% | -0.8%
COC(=O)N/N=C/c1cccnc1
 : 2% | 9% | -1% | 6% | 2% | -9% | 10% | -1.2%
Cc1oc(-c2ccccc2Cl)nc1CS(=O)CC(=O)NCCc1ccccc1 (centres undefined)
 : x | x | -9% | x | 13% | 17% | 12% | x
Nc1ncnc2nc(SCC(=O)Nc3ccccc3F)[nH]c12
 : 15% | 11%[46.1 µM] | 6% | x | 21% | 1% | 1% | x
CN1CCN(CC(=O)c2ccccc2F)CC1
 : u | -1% | -2% | x | 1% | 4% | 3% | x
O=C(NCCN1CCCCC1)Nc1ccccc1Cl
 : x | x | 10% | x | 19% | -13% | 20% | x
COC(=O)c1c(-c2snnc2C)n[nH]c1C
 : -29% | 17% | -9% | x | -1% | -7% | -4% | x
C=CCN(CC=C)C(=O)C1CC(=O)N(c2ccc(Br)cc2)C1 (centres undefined)
 : -3% | 8% | 3% | 3% | -11% | -12% | 4% | 4.5%
COCCNC(=O)CSc1c(C)cnc2c1c(=O)n(C)c(=O)n2C
 : 14%[46.1 µM] | x | x | 7% | x | -3% | x | -1.2%
COc1cccc(C2c3[nH]c4ccccc4c3C[C@H]3C(=O)N(CCCO)CC(=O)N23)c1OC (some centres undefined)
 : x | x | 2% | x | -7% | 3% | 2% | x
CCOC(=O)C1CCN(C(=O)C2CCN(S(=O)(=O)c3cc(Cl)ccc3Cl)CC2)CC1
 : 21%[14.3 µM] | -2% | 20% | u | 7% | u | 4% | 0.1%
COc1ccc(Cl)cc1NC(=O)COC(=O)C(CC(C)C)N1C(=O)C2CC=CCC2C1=O (centres undefined)
 : -14% | u | 11% | -7% | -13% | u | 7% | 13µM*
CC1(C)C(=O)Nc2ccccc2N1C(=O)COc1ncnc2c(Cl)cc(Cl)cc12
 : 7% | -22% | 6% | -8% | 5% | u | 1% | -4.9%

Compounds above containing fluorine:
Below each compound: Lassa entry inh | MARV entry inh | RE007 growth inh | Cruzain noTriton | NS1 function inh | 2A StopGo | SARS PLpro yeast | Cruzain inh Det
Cc1sc2ncn(CC(=O)NCCCC(=O)N3CCN(c4ccccc4F)CC3)c(=O)c2c1C
 : u | -3%[46.1 µM] | -9% | x | -12% | -17% | 9% | x
Fc1ccc2ncc3c(-c4ccccc4)n[nH]c3c2c1
 : 27%[46.1 µM] | x | x | -9% | x | 29% | x | -3.1%
COc1ccc(-c2cc(C(F)(F)F)nc(NCc3ccccc3)n2)cc1OC
 : 10%[46.1 µM] | u | x | 3% | x | -22% | x | -10%
Cn1nc(C(=O)Nc2ccc(F)c(Cl)c2)c2c1-c1ccccc1S(=O)(=O)C2
 : -23%[46.1 µM] | x | x | 9% | x | -7% | x | 2.0%
Nc1ncnc2nc(SCC(=O)Nc3ccccc3F)[nH]c12
 : 15% | 11%[46.1 µM] | 6% | x | 21% | 1% | 1% | x
CN1CCN(CC(=O)c2ccccc2F)CC1
 : u | -1% | -2% | x | 1% | 4% | 3% | x

(list continues)
Below each compound: Lassa entry inh | MARV entry inh | RE007 growth inh | Cruzain noTriton | NS1 function inh | 2A StopGo | SARS PLpro yeast | Cruzain inh Det
CCOCCCNC(=O)CCCn1nc(C)n2c(cc3sccc32)c1=O
 : x | x | 12% | -3% | -8% | -9% | -1% | 2.9%
CC(/C=N/NC(=O)CSc1nc2ccccc2n1C)=C\c1ccco1
 : u | u | 6% | -18% | 1% | -9% | -10% | -15%
CC1CCCCN1CCNC(=O)c1ccc2c(c1)N(Cc1ccccc1)C(=O)c1ccccc1S2(=O)=O (centres undefined)
 : u | u | -9% | x | -18% | 10% | 0% | x
CC12C=CC(=O)C=C1CCC1C2CCC2(C)C(C(=O)CO)CCC12 (centres undefined)
 : -9%[46.1 µM] | 6%[46.1 µM] | -12% | x | x | -25% | x | x
CCN1C(=O)C2(C(C#N)=C(N)Oc3cc(C)oc(=O)c32)c2ccccc21 (centres undefined)
 : u | 8% | 3% | -8% | 1% | 15% | 3% | 3.5%
CCn1c(CC(=O)Nc2ccccc2)n[nH]c1=S
 : -12%[46.1 µM] | 14%[46.1 µM] | -4% | x | 2% | -27% | 1% | x
C=Cn1ccnc1P(=S)(c1ccc2c(c1)c1ccccc1n2CC)c1nccn1C=C
 : u | u | -7% | u | -27% | x | 11% | -4.4%
CCCCN(C)CCOc1ccccc1OCC
 : u | u | 0% | 8% | u | -13% | -3% | 0.8%
CC1CCN(S(=O)(=O)c2cccc(C(N)=O)c2)CC1
 : -4% | u | -8% | 4% | -2% | -8% | -12% | 1.5%
C/C(=N/NC(=O)CN1CCN(Cc2ccccc2Cl)CC1)c1ccncc1
 : 3% | u | 4% | 11% | -3% | -9% | 17% | -3.4%
CNC(=O)CSc1nnc(-c2cccnc2)n1CCc1ccccc1
 : 6% | -16% | -7% | 1% | -22% | -7% | 5% | 3.8%
CCOC(=O)c1c(-c2ccc(C)cc2)csc1NC(=O)CCSc1nnc2ccccn12
 : u | u | -10% | 0% | -9% | 0% | -4% | -4.6%
CC1Cc2nc(SCC(=O)N3CCCC3)n(C)c(=O)c2S1 (centres undefined)
 : x | x | 10% | -5% | -6% | -9% | 7% | -0.4%
Cc1cccc(-n2c(/C=C/c3ccc([N+](=O)[O-])o3)nc3ccccc3c2=O)c1
 : u | u | 5% | -4% | -5% | u | -100% | -6.2%
CC(C)NC(=O)Cn1cc(C(=O)c2ccccc2F)c2ccccc21
 : u | -11%[46.1 µM] | -23% | 5% | -2% | 8% | -6% | 2.4%
COc1ccc(-c2cc(C(F)F)n3ncc(C(=O)n4ccnc4C)c3n2)cc1
 : -15% | u | 0% | u | 7% | 14µM* | 12% | -17%
COc1ccccc1N(CC(=O)Nc1ccccc1)S(=O)(=O)c1cccs1
 : -15% | u | -9% | x | x | 14% | -1% | x
COC(=O)c1cccc(-n2c(C)cc(C=O)c2C)c1C
 : 21% | u | 20% | -6% | 3% | 10% | -15% | -4.3%
CC(C)(C)NC(=O)CN(C(=O)C(=O)Nc1ccc2c(c1)OCCO2)N1CCOCC1
 : x | 0%[46.1 µM] | 2% | x | -6% | 25% | -1% | x
COc1cc(/C=C/c2ccc3cccc(O)c3n2)cc(Cl)c1OC
 : u | 4.5µM* | -17% | x | -3% | -10% | -1% | x
O=C(Nc1nnc(-c2ccccn2)o1)c1cccc(Br)c1
 : -1% | 5% | -6% | 4% | -29% | 12% | -13% | -1.7%
CN(C)CCNC(=O)c1ccc(-n2c(-c3ccccc3)cc3c2CCCC3)cc1
 : u | x | x | u | x | -9% | x | -2.1%

Source: PubChem (National Center for Advancing Translational Sciences (NCATS))

This is a random part of the collection, and some 4.7% of all compounds hit somewhere here.
